HSV augment – increases HSV replication in cells. HSV replication augmentation in cells, fold increase. maximum fold increase. actives 0.005% (n = 220,000). AID 1956;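 active means peak rise of 1.5-fold or more in the series; inconclusive means self-fluorescent or not available for retest; tested in PC3 cells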;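 further: first round at 10 µM; read as green reporter fluorescence; hits show the peak of a series up to 25 µM; 1 = signal of infected wells without compound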
PKD1 kinase inh – PKD1 (human) kinase inhibition; inhibition, %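 (about 10 µM by stock and volumes)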; actives 0.056% (n = 200,000); PKD1 kinase fluorescence polarization assay;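 active means inhibition of 50% or more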;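 further: controls were vehicle for no effect and a reference inhibitor for full effect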
GALR2 agonist – GALR2 (human) receptor agonism; O43603; GALR2-expressing cells, agonist activation read-out; activation, %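 (tested at 5 µM)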; actives 0.48% (n = 140,000); AID 803;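 active means above mean plus 3 SD of all compounds, about 5% in these data, not always enough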;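 further: 0% = vehicle buffer wells and 100% = reference agonist at full effect; tested in CHO reporter cells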
Target sequence (O43603 whole entry, looked up): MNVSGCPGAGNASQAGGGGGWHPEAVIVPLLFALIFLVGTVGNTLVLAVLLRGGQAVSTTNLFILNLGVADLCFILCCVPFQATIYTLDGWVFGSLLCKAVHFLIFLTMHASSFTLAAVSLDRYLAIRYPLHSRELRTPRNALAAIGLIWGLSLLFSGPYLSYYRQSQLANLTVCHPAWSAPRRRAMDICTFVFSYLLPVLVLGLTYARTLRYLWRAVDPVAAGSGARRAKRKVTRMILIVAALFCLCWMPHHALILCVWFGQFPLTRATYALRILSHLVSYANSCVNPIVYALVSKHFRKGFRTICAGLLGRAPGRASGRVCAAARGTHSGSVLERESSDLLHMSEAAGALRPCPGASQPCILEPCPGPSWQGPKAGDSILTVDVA
INS promoter inh – TRM-6 insulin promoter activity inhibition. AID 1273. TRM-6 cells (human fetal islet line), insulin promoter-eGFP reporter, imaging; reporter expression induced with tamoxifen. actives 0.9% (n = 130,000). inhibition, % at 2 µM;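 active means inhibition above the mean plus 3 SD, with well images judged a real hit on visual review, cut at about 60% in these data, passing the limit was not always enough; inconclusive means inhibition over the cutoff but images rejected on review; inactive means inhibition not above the cutoff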
RGS16-Gao HTS – modulates binding between human RGS16 and Galphao; O15492+P09471; binding response (% of control), % at 10 µM; actives 0.38% (n = 220,000); AID 1441; bead-based flow cytometry RGS16-Galphao binding, fluorescence; actives lie on both sides;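 active means below 25% or above 175%, edge rows of some plates excepted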;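 further: Galphao activated by GDP with aluminum fluoride before binding; 100% = wells without compound and 0% = beads without RGS; some results beyond the cut were filed as inactive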
Target sequence (O15492 whole entry, looked up): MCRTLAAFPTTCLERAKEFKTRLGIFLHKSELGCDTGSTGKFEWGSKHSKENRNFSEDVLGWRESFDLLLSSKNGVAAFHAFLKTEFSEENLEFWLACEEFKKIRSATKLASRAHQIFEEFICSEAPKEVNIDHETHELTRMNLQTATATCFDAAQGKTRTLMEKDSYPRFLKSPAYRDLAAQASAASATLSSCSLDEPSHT
Target sequence (P09471 whole entry, looked up): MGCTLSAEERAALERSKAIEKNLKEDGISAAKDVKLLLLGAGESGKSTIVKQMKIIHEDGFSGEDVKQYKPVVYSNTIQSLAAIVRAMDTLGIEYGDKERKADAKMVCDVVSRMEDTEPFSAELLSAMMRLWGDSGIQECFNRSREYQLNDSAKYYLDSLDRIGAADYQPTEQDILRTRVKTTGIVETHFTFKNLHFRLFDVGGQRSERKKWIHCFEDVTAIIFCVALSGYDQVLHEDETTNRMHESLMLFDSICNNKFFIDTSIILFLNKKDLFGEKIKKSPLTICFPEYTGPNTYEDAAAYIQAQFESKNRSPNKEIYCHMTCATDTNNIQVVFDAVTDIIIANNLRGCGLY
INS promoter inh cell count – also measured in INS promoter inh; calls as there; normalized cell count, %; measured here: cell count, toxicity; reference of the scale not given here;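 cells exposed to compound for 48 h; stained nuclei by imaging scaled within each plate; lower means fewer cells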
HSV augment primary fold – also measured in HSV augment; calls as there; fold increase; compound at 10 µM; measured here: primary screen fold increase 10 uM; tested in PC3 cells;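 GFP signal in the first replicate; 1 = infected wells without compound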
* marks the source's active call; other numbers are inactive results; i = inactive; ? = inconclusive; . = not tested or not shown.

cpd	canonical_smiles	PKD1 kinase inh	GALR2 agonist	INS promoter inh	RGS16-Gao HTS
1	O=C(O)CCN1CC2([N+](=O)[O-])C=CC(=O)C([N+](=O)[O-])(C1)C2CC(=O)c1ccccc1 (stereo unspecified)	-14	-0.1	-17	104
2	Cc1ccc(-c2cn3c(n2)CCCC3)cc1	-12	-1.5	6	99
3	COCCN(C(=O)c1ccco1)c1nnc(-c2ccc(OC)cc2)s1	2	0.7	0	99
4	O=C1c2ccccc2C(=O)N1c1nc2nccc(-c3ccccc3)n2n1	-3	0.8	7	101
5	Cc1cccc(NC(=O)NCC(F)(F)F)n1	-6	0.0	-46	98
6	Cc1nc([N+](=O)[O-])c(Sc2nc3ccccc3[nH]2)n1Cc1ccccc1	10	-1.0	19	108
7	Cc1nn(-c2ccccc2)cc1/C=N/NC(N)=S	.	.	.	100
8	CC(=O)Nc1ccccc1C(=O)C(=O)Nc1ccc(C)c(F)c1	4	-0.8	38	103
9	Cc1ccc(NC(=O)CCCN2C(=O)c3cccc4cccc(c34)C2=O)cc1	8	-0.7	-13	112
10	O=C(CO/N=C/c1ccc(OC(F)F)cc1)NC1CCCC1	-5	.	.	98
11	COC(=O)CSc1cnc2ccccc2n1	-1	-1.9	46	92
12	O=C1C2C3C=CC(C3)C2C(=O)N1CN(Cc1ccccc1)CN1C(=O)C2C3C=CC(C3)C2C1=O (stereo unspecified)	3	-2.5	-136	106
13	CC(C)CC(=O)Nc1ccc(N2CCOCC2)cc1	-1	-1.5	.	97
14	CC1=CC=CN2CC(O)CN=C12 (stereo unspecified)	3	-3.1	.	98
15	CC(OC(=O)c1ccccc1Oc1ccccc1)C(=O)NC1CC1 (stereo unspecified)	-6	.	.	102

cpd	HSV augment	HSV augment primary fold	INS promoter inh cell count
1	i	0.99	95
2	i	1	84
3	i	0.88	55
4	i	0.94	59
5	i	0.8	102
6	i	0.9	74
7	i	0.89	.
8	i	0.89	146
9	i	0.99	113
10	i	1.1	.
11	i	1	70
12	i	0.92	48
13	i	0.92	.
14	.	.	.
15	i	1	.

Further entries:
cpd	canonical_smiles	PKD1 kinase inh	GALR2 agonist	INS promoter inh	RGS16-Gao HTS
16	C=CCc1cc(C=O)cc(OCC)c1O	-8	.	.	108
17	c1ccc(-c2nc(-n3nc4ccccc4n3)nc3ccccc23)cc1	8	-1.2	-145	101
18	NC(=O)c1cc(C(=O)c2ccccc2Cl)c[nH]1	-5	.	.	99
19	COc1ccc(-c2cc(C(=O)OCC(=O)N3CCCC3)c3ccccc3n2)cc1	-10	-0.6	10	102
20	Cc1ccc(-c2nc(NC(=O)c3nn(C)cc3[N+](=O)[O-])sc2C)cc1	-5	8.1	-196	98
21	CN(Cc1ccccc1)C(NC(=O)c1ccccc1)C(Cl)(Cl)Cl (stereo unspecified)	-2	-3.1	21	.
22	O=C(Nc1ccccc1)c1nn(-c2cccc(C(F)(F)F)c2)ccc1=O	-2	.	.	109
23	O=C(Cn1c(COc2ccccc2)nc2ccccc21)Nc1cc(Cl)ccc1Cl	-11	10*	.	100
24	CC1=NN(c2ccccc2)C(=O)C1N=Nc1ccccc1 (stereo unspecified)	1	-0.9	-56	133
25	CCCC1(C(=O)OC)NC(c2cc(OC)c(OC)c(OC)c2)C2C(=O)N(CC)C(=O)C21 (stereo unspecified)	-18	-2.0	.	89
26	CC(Sc1nncn1C)C(=O)NCc1ccc2c(c1)OCO2 (stereo unspecified)	-1	.	15	107
27	O=[N+]([O-])c1ccc(/C=N/Nc2nc(N3CCOCC3)nc(N3CCOCC3)n2)cc1	2	.	.	105
28	O=C1NCCCc2c1no[n+]2[O-]	2	-1.4	25	100
29	C/C(NCc1cccnc1)=C(\C#N)C(=O)NCc1ccccc1	2	-3.1	.	99
30	Cc1cccc(C(=O)NC(=S)Nc2ccccc2C(F)(F)F)c1	-6	1.3	-72	102

cpd	HSV augment	HSV augment primary fold	INS promoter inh cell count
16	i	0.96	.
17	i	0.89	114
18	i	0.83	.
19	i	1.1	42
20	i	0.44	3
21	i	1.1	90
22	i	0.88	.
23	i	0.85	.
24	i	1.1	62
25	i	0.79	.
26	i	1	55
27	i	0.69	.
28	i	1	110
29	i	1	.
30	i	0.92	130

A draw from above in order of SMILES length, smallest number first:
cpd	canonical_smiles	PKD1 kinase inh	GALR2 agonist	INS promoter inh	RGS16-Gao HTS
24	CC1=NN(c2ccccc2)C(=O)C1N=Nc1ccccc1 (stereo unspecified)	1	-0.9	-56	133
23	O=C(Cn1c(COc2ccccc2)nc2ccccc21)Nc1cc(Cl)ccc1Cl	-11	10*	.	100
25	CCCC1(C(=O)OC)NC(c2cc(OC)c(OC)c(OC)c2)C2C(=O)N(CC)C(=O)C21 (stereo unspecified)	-18	-2.0	.	89

cpd	HSV augment	HSV augment primary fold	INS promoter inh cell count
24	i	1.1	62
23	i	0.85	.
25	i	0.79	.

Later entries
cpd	canonical_smiles	PKD1 kinase inh	GALR2 agonist	INS promoter inh	RGS16-Gao HTS
31	Cc1nnc(NC(=O)c2cccc(S(=O)(=O)N3CC(c4ccccc4)CC3=O)c2)s1 (stereo unspecified)	-5	-0.9	.	105
32	CC(C)(C)NC(=O)c1ccccc1-c1nc2ccccc2s1	.	.	.	99
33	CCc1ccccc1NC(=O)C(C)n1nc([N+](=O)[O-])c(Br)c1C (stereo unspecified)	-10	-1.7	.	105
34	COc1ccc(OC)c(-n2c(=S)[nH]c3cc(C(=O)N4CCC(C(N)=O)CC4)ccc3c2=O)c1	-5	0.2	20	103
35	CC1CCN(c2nc(-c3ccccc3O)nc3ccccc23)CC1	8	-2.0	-11	106
36	O=C(Nc1ccc(NC(=S)NC(=O)c2ccccc2F)cc1)c1cccs1	2	.	.	109
37	COc1cccc(/C=N/NC(=O)C(=O)NCc2cccnc2)c1O	6	0.4	-53	49
38	CC(=O)c1ccc(N2CCCC2)c(F)c1	5	-1.0	21	95
39	CC1(C)CC(=O)C2=C(C1)OC(N)=C(C#N)C2c1ccsc1 (stereo unspecified)	1	-2.0	-23	105
40	NS(=O)(=O)c1ccc(NC(=O)COC(=O)c2cc3ccccc3oc2=O)cc1	.	.	.	97
41	O=C(NC1CCCCCC1)C1CCN(S(=O)(=O)N2CCC3(CC2)OCCO3)CC1	-3	0.4	-28	100
42	CCOCCCNC(=O)C(NC(=O)Cc1cccs1)c1ccccc1 (stereo unspecified)	3	.	.	102
43	Nc1cc(=O)[nH]c(SCC(=O)Nc2ncc(C(F)(F)F)cc2Cl)n1	-2	.	-41	96
44	COc1ccccc1NC(=O)N1CCCC1C(=O)Nc1ccc2c(c1)OCO2 (stereo unspecified)	-2	-1.5	0	106
45	Cc1cc(C)c2c(=O)n(CC(=O)Nc3cccc(F)c3)sc2n1	.	.	.	17*

cpd	HSV augment	HSV augment primary fold	INS promoter inh cell count
31	i	1.1	.
32	i	0.97	.
33	i	0.83	.
34	i	1.1	26
35	i	0.84	120
36	i	0.97	.
37	i	0.76	61
38	i	0.97	71
39	i	1.1	81
40	i	0.83	.
41	i	1	104
42	i	0.99	.
43	i	0.96	98
44	i	0.95	83
45	i	0.99	.

Entries listed above printed as active in RGS16-Gao HTS:
nr	SMILES	PKD1 kinase inh	GALR2 agonist	RGS16-Gao HTS	HSV augment	HSV augment primary fold
45	Cc1cc(C)c2c(=O)n(CC(=O)Nc3cccc(F)c3)sc2n1	.	.	17*	i	0.99

The list continues.
cpd	canonical_smiles	PKD1 kinase inh	GALR2 agonist	INS promoter inh	RGS16-Gao HTS
46	COc1ccccc1C1SCCN1C(=O)c1ccc([N+](=O)[O-])cc1 (stereo unspecified)	-1	0.6	-8	101
47	CCOC(=O)c1sc(=S)n(C)c1NC(=O)c1ccccc1	3	-0.9	-11	62
48	COc1cc(OC)cc(C(=O)OC/C(O)=C(\C#N)c2nc3ccccc3[nH]2)c1	.	.	.	99
49	O=S(=O)(c1ccc(NC(=S)NCCC(c2ccccc2)c2ccccc2)cc1)N1CCOCC1	-17	-0.5	-5	100
50	O=C(c1cc2ccccc2oc1=O)N(Cc1ccco1)Cc1cccs1	-6	-0.9	31	97
51	CC(C)Cc1nnc(NC(=O)c2ccc([N+](=O)[O-])cc2)s1	7	-2.1	-27	109
52	COc1ccc(S(=O)(=O)N2CCNCC2)cc1OC	-2	.	-5	99
53	Cc1cccc(OC(C)C(=O)NCc2ccc(S(N)(=O)=O)cc2)c1 (stereo unspecified)	6	-0.9	30	107
54	O=C(NCc1ccccn1)C(=O)Nc1nc(C23CC4CC(CC(C4)C2)C3)cs1	6	.	.	117
55	COc1cccc(/C=N/NC(=O)CCNc2n[nH]c(=O)[nH]c2=O)c1OC	6	.	-65	100
56	CCCCCCCC(=O)NNC(=O)CCC(=O)O	-1	-1.1	39	98
57	CC(C)CCNc1nc(N2CCCC2)c2c(c1C#N)CCN(C)C2	-10	-0.1	.	104
58	CCNC(=S)N1CCc2ccccc2C1	-2	.	39	101
59	CS(=O)(=O)N(CC(=O)N1CCCC1)c1ccc(Cl)c(Cl)c1	-7	-2.5	-17	114
60	CCOC(=O)Cn1c(=O)oc2cc(S(=O)(=O)Nc3cccc(C)c3)ccc21	7	-2.3	.	104

cpd	HSV augment	HSV augment primary fold	INS promoter inh cell count
46	i	0.82	104
47	i	1	134
48	i	1.1	.
49	i	0.73	63
50	i	0.93	107
51	i	0.98	96
52	i	1.1	126
53	i	0.93	99
54	i	0.98	.
55	i	0.98	62
56	.	.	99
57	i	0.92	.
58	i	0.97	77
59	i	0.8	95
60	i	0.77	.

Single entries from the results shown:
#18 in PKD1 kinase inh reads -5
#21 in INS promoter inh cell count reads 90
#30 in RGS16-Gao HTS reads 102

New compounds follow:
cpd	canonical_smiles	PKD1 kinase inh	GALR2 agonist	INS promoter inh	RGS16-Gao HTS
61	CCOc1ccc(N=C(NN)c2ccc3ccccc3n2)cc1	8	-1.4	-3	95
62	C=C(C)Cn1c(Sc2nnc(C)s2)nc2c1c(=O)[nH]c(=O)n2C	-7	-0.6	.	108
63	COc1ccc(S(=O)(=O)O/N=C2\CCSc3ccc(C)cc32)cc1	-1	-0.4	32	99
64	O=C(N/N=C/c1cn(-c2cccs2)nc1-c1ccccc1)c1ccccc1Cl	4	-1.7	-79	106
65	O=C1CS/C(=N/N=C2C3CC4CC(C3)CC2C4)N1	8	-1.7	-159	105
66	CCOC(=O)C1(Cc2ccccc2)CCN(Cc2cn[nH]c2-c2ccccc2)CC1	-6	.	.	148
67	COc1cc(NC(=O)NC(C)(C(F)(F)F)C(F)(F)F)cc(OC)c1OC	1	-0.2	18	109
68	COc1ccc(C(=O)N2CCN(c3ccc(C)cc3C)CC2)cc1OC	-6	-1.9	.	107
69	CCCCCc1ccc(OCCCC[n+]2ccc(C)cc2)c(CCCCC)c1	11	.	.	114
70	OC(COCc1cccs1)CN1CCCCCC1 (stereo unspecified)	0	-2.5	8	96
71	c1ccc2c(c1)NCCS2	-8	.	.	28
72	Fc1ccc(CSc2nnc(-c3cccnc3)n2Cc2ccco2)cc1	-4	-1.5	15	103

cpd	HSV augment	HSV augment primary fold	INS promoter inh cell count
61	i	0.92	86
62	i	0.83	.
63	i	0.82	109
64	i	0.73	60
65	i	0.98	167
66	i	0.81	.
67	i	0.82	88
68	i	0.89	.
69	i	0.63	.
70	i	0.91	132
71	?	.	.
72	i	1	104

Single records (already shown).
`CCOc1ccc(N=C(NN)c2ccc3ccccc3n2)cc1` is entered as PKD1 kinase inh: 8; GALR2 agonist: -1.4; INS promoter inh: -3; RGS16-Gao HTS: 95; HSV augment: i; HSV augment primary fold: 0.92; INS promoter inh cell count: 86
`COc1cc(NC(=O)NC(C)(C(F)(F)F)C(F)(F)F)cc(OC)c1OC` is entered as PKD1 kinase inh: 1; GALR2 agonist: -0.2; INS promoter inh: 18; RGS16-Gao HTS: 109; HSV augment: i; HSV augment primary fold: 0.82; INS promoter inh cell count: 88

Screening data (PubChem BioAssay)
